# AF4-AF9 inh – inhibitors of AF4 peptide binding to AF9, primary screen, biochemical, AlphaScreen, biotin-AF4 peptide, FLAG-AF9, single point | Protein AF-9 (Homo sapiens), P42568 | inhibition, % at 10 µM | actives 0.47% (n = 350,000) | AID 651704, 2012;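 active means every replicate reaching a set inhibition limit, whatever the replicate mean, cut at about 25% in these data; inconclusive means mean inhibition reaches that limit but some replicates miss it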;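 further: 0% = plate neutral control median and 100% = total signal loss; the record names both 10 and 1 µM as test concentration; the first replicate is given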
# Target sequence (P42568 whole entry, looked up): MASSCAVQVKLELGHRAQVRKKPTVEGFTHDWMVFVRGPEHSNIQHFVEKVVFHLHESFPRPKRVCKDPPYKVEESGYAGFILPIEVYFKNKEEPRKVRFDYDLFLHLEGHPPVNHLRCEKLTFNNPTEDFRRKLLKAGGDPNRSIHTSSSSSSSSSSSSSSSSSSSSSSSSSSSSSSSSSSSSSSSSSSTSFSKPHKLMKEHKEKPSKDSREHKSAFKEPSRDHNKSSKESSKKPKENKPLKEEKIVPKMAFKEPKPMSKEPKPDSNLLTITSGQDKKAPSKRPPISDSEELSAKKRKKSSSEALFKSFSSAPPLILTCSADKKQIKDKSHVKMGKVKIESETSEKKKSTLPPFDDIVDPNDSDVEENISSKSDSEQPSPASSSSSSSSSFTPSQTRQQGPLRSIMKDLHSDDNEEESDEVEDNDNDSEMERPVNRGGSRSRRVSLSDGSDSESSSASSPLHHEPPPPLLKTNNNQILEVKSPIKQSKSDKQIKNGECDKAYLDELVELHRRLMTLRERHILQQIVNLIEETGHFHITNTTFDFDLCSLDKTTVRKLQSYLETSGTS
# Calb FLC – C. albicans growth inhibition with fluconazole, primary screen, CaCi-2 strain, Alamar Blue fluorescence; C. albicans CaCi-2 (fluconazole-resistant clinical isolate) + fluconazole, 48 h; growth inhibition, % (test concentration not listed); actives 0.57% (n = 300,000); AID 1979, 2009;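 active means most replicates above 75%; inconclusive means exactly half above 75%; inactive means most below 75%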;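 further: all wells also contain fluconazole at 8 µg/ml as a sub-toxic cotreatment; 0% = median of DMSO wells and 100% = median of geldanamycin control wells; wells of about 8 µL received 7.5 nL stock; the first replicate is given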
# T cruzi repl – inhibitors of intracellular T. cruzi growth, primary screen, luminescence, NIH3T3 host cells. T. cruzi beta-gal in NIH3T3, 90 h. actives 1.4% (n = 300,000). inhibition, % (no concentration beside the values);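 active means mean inhibition across valid replicates above about 55%, limit read from the data; inconclusive means mean below that limit but half or more replicates reach it; inactive means mean below it, under half of replicates reach it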;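 further: signal also drops with host cell toxicity which is not excluded here; 0% = plate median of DMSO wells and 100% = zero luminescence signal; higher percent means less beta-gal luminescence so fewer parasites; stock transfer was 50 nL into about 50 µL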
# Bfl-1 A1 inh – caspase 3/7 activation in MEF A1-2A-BIM cells, primary screen, A1 inhibitor project, cell-based, luminescence, HTS; caspase activation, % (concentration not given with the values); actives 0.066% (n = 330,000); Caspase-Glo 3/7 luminescence, 3 h; percent of clofoctol response, vehicle zero;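 active means over half of replicate activation scores above 10%, or exactly half above 10 with the replicate mean above 10; inconclusive means replicate mean below 10 yet half the replicates above 10; inactive means over half of replicates below 10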;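 further: wells of about 30 µL received 50 nL stock; many hits fall short of the cut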
# Beta cell apopt – inhibitors of cytokine-induced beta cell apoptosis, primary screen, luminescence. INS-1E cytokine-induced death, ATP luminescence, 48 h; percent of positive-control rescue, neutral wells zero. protection from apoptosis, % (concentration not given with the values). actives 0.8% (n = 300,000);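 active means all replicates at 75% or more, or half of them and the mean; inconclusive means half reach 75% but not the mean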;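 further: 0% = cytokine-treated negative control wells and 100% = positive control rescue; higher means more ATP so stronger rescue from cytokine killing; wells of about 40 µL received 100 nL stock; the first replicate is given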
# RanGTP-Imp inh – inhibitors of RanGTP-importin-beta interaction, primary screen, biochemical, FRET, CFP-Ran, YFP-importin-beta, homogeneous | cell-free CFP-Ran/YFP-importin-beta FRET ratio | actives 1.1% (n = 300,000) | inhibition, % (concentration not given with the values);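 active means most replicates above 15%; inconclusive means exactly half above 15%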;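 further: 0% = DMSO wells and 100% = Ran loaded with GDP instead of GTP; wells of about 40 µL received 100 nL stock; the first replicate is given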
# Vif TR-FRET – inhibitors of Vif binding to APOBEC3G peptide, primary screen, biochemical, TR-FRET, GST-Vif 1-94, biotin-A3G peptide, dose response retest (AID 1117319); Virion infectivity factor (Human immunodeficiency virus type 1 group M subtype B (isolate …; TR-FRET GST-Vif / biotin-A3G peptide binding; higher % means a stronger effect; test concentration not given here; strong numbers were not always called active; inhibition, %; hits with a dose series show IC50 in µM; actives 0.57% (n = 260,000);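 active means above the screen mean plus three standard deviations and confirmed in dose response; inconclusive means results disagree or hit not tested in dose response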;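 further: Vif residues 1-94 fused to GST binding biotinylated APOBEC3G peptide 110-148; 0% = full assay without inhibitor and 100% = GST in place of GST-Vif; retest series ran down from 100 µM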
# Ecoli rRNA inh – reduced GFP signal of wild-type E. coli, primary screen, bacterial rRNA inhibitor project, GFP/RFP fluorescence, OD600, single point; E. coli WT GFP vs humanized-ribosome RFP mutants, 24 h; hits give low values; DMSO median 0, no signal -100; GFP signal change (wild-type ribosome), % (concentration not given with the values); actives 1.6% (n = 350,000); AID 720706, 2013;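 active means significant combined selectivity score with lowered wild-type GFP, culture density cut under 30%, mutant RFP and density less affected; inactive means any of these conditions unmet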; further: one replicate is shown; some compounds called inactive have numbers as strong as hits
# Ecoli rRNA inh OD600 – also measured in Ecoli rRNA inh; calls as there; OD600 change, %; measured here: OD600 growth;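 optical density of the mix in the first replicate; 0 = DMSO median and -100 = no signal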
# Ecoli rRNA inh RFP – recorded beside Ecoli rRNA inh, whose call it bears; RFP signal change, %; measured here: RFP humanized mutant strains;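 first replicate; 0 = DMSO median and -100 = no signal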
# * marks the source's active call; other numbers are inactive results; ? = inconclusive; · = no result given. This is a subset (hit frequency here may not be typical).
# The opening two compounds, ahead of the listing:
SMILES,AF4-AF9 inh,Calb FLC,T cruzi repl,Bfl-1 A1 inh,Beta cell apopt,RanGTP-Imp inh,Vif TR-FRET,Ecoli rRNA inh,Ecoli rRNA inh OD600,Ecoli rRNA inh RFP
CN1C(=O)C(C)(C)c2cc(S(=O)(=O)N3CCCC(C(=O)Nc4ccc(Cl)cc4)C3)ccc21 (stereo unspecified),2.0,6,33,-0.3,15,2.5,·,-9,-4,4.6
CCN1C(=O)C(O)(CC(=O)/C=C/C=C/c2ccccc2)c2ccccc21 (stereo unspecified),·,-5,2,-0.9,-6,-3.0,0%,·,·,·

# The whole of this part (from the top)
SMILES,AF4-AF9 inh,Calb FLC,T cruzi repl,Bfl-1 A1 inh,Beta cell apopt,RanGTP-Imp inh,Vif TR-FRET,Ecoli rRNA inh,Ecoli rRNA inh OD600,Ecoli rRNA inh RFP
CN1C(=O)C(C)(C)c2cc(S(=O)(=O)N3CCCC(C(=O)Nc4ccc(Cl)cc4)C3)ccc21 (stereo unspecified),2.0,6,33,-0.3,15,2.5,·,-9,-4,4.6
CCN1C(=O)C(O)(CC(=O)/C=C/C=C/c2ccccc2)c2ccccc21 (stereo unspecified),·,-5,2,-0.9,-6,-3.0,0%,·,·,·
O=C(O)c1nn(Cc2csc(-c3ccccc3)n2)c(=O)c2ccccc12,-1.3,-2,-12,0.4,4,2.7,·,4,1,1.3
CCOc1cc(-c2noc(CCC(=O)NCC3CCCO3)n2)ccc1OC (stereo unspecified),2.3,3,-3,-0.1,-6,?,·,2,7,0.3
CC(C)OC(=O)C(CC(=O)O)NCc1ccccc1 (stereo unspecified),·,4,-6,-0.2,-6,0.1,3%,·,·,·
CCN(CC)C(=O)c1cc2c(=O)n3cccc(C)c3nc2n1C,·,5,-9,1.7,-4,-4.1,-4%,·,·,·
COC(=O)C(C)NC(=O)C1CCCN1C(=O)CNC(=O)OCc1ccccc1 (stereo unspecified),-4.0,10,-9,0.2,-1,-0.2,·,3,5,-16
CC(C)C[C@H](NC(=O)N1CCn2c1nc1ccccc12)C(=O)NC1CC1,-0.2,2,9,-0.4,-3,1.4,·,0,2,-1.2
COc1ccc(N2C(=O)NC(NC(=O)c3cccnc3)(C(F)(F)F)C2=O)cc1 (stereo unspecified),-2.2,-16,5,1.1,-3,1.6,·,10,23,-2.4
O=C(O)Cc1c(-c2ccccc2)c2cc(Cl)ccc2[nH]c1=O,-3.5,-1,-5,3.0,4,?,·,2,4,1.7
CCOc1cc(C2/C(=C(/O)c3ccc(OC)cc3)C(=O)C(=O)N2CC2CCCO2)ccc1O (stereo unspecified),·,0,-5,-0.1,-9,0.8,-1%,·,·,·
CC(C)=CCC/C(C)=C/C=N/NC(=O)c1ccc([N+](=O)[O-])cc1,·,0,10,0.3,3,2.5,·,·,·,·
CCC(C)(C)NC(=O)C(Sc1ccccc1)c1ccccc1 (stereo unspecified),-4.0,-5,-3,0.5,-2,3.1,·,-8,-5,2.5

# Shown with each value named: 3 of the compounds above.
CCN1C(=O)C(O)(CC(=O)/C=C/C=C/c2ccccc2)c2ccccc21 (stereo unspecified)
- AF4-AF9 inh: ·
- Calb FLC: -5
- T cruzi repl: 2
- Bfl-1 A1 inh: -0.9
- Beta cell apopt: -6
- RanGTP-Imp inh: -3.0
- Vif TR-FRET: 0%
- Ecoli rRNA inh: ·
- Ecoli rRNA inh OD600: ·
- Ecoli rRNA inh RFP: ·
O=C(O)c1nn(Cc2csc(-c3ccccc3)n2)c(=O)c2ccccc12
- AF4-AF9 inh: -1.3
- Calb FLC: -2
- T cruzi repl: -12
- Bfl-1 A1 inh: 0.4
- Beta cell apopt: 4
- RanGTP-Imp inh: 2.7
- Vif TR-FRET: ·
- Ecoli rRNA inh: 4
- Ecoli rRNA inh OD600: 1
- Ecoli rRNA inh RFP: 1.3
CCOc1cc(-c2noc(CCC(=O)NCC3CCCO3)n2)ccc1OC (stereo unspecified)
- AF4-AF9 inh: 2.3
- Calb FLC: 3
- T cruzi repl: -3
- Bfl-1 A1 inh: -0.1
- Beta cell apopt: -6
- RanGTP-Imp inh: ?
- Vif TR-FRET: ·
- Ecoli rRNA inh: 2
- Ecoli rRNA inh OD600: 7
- Ecoli rRNA inh RFP: 0.3

# As entered above.
# For Ecoli rRNA inh OD600, CC(C)C[C@H](NC(=O)N1CCn2c1nc1ccccc12)C(=O)NC1CC1 is entered as 2
# For Beta cell apopt, CCOc1cc(-c2noc(CCC(=O)NCC3CCCO3)n2)ccc1OC (stereo unspecified) is entered as -6

# High-throughput results as filed in PubChem.
